D2 PAM = positive allosteric modulators of human D2 dopamine receptor; P14416; DiscoveRx D2 beta-arrestin cells, luminescence, 90 min; 100% = 57 uM dopamine signal; potentiation, % (no concentration beside the values); 360,000 tested, 0.23% active; active = potentiation of 50% or more; inconclusive = 30% to 50%; inactive = 30% or less;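 further: compound concentration not given in the record; tested on top of an EC20 dose of dopamine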
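PathHunter beta-arrestin assay in DiscoveRx D2 cells. Compounds were added with an EC20 of dopamine (50 nM final) for 90 min at 37 deg C. Luminescence was read 1 h after detection reagent, with 57 uM dopamine as the EC100 control.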
Six1-Eya2 blk = inhibitors of human Six1/Eya2 interaction. AlphaScreen GST-Six1/His-Eya2 binding, biochemical; hits give low values; control for the full effect not named in the record. activity change, % (test concentration not listed). 360,000 tested, 0.56% active; in the data active = activity change below about -65%; inconclusive = about -30% to -65%; inactive = above about -30%; further: on the % scale 0 is the no-effect control and ±100 the full control effect; compound concentration not given in the record
Target sequence (O00167 whole entry, looked up): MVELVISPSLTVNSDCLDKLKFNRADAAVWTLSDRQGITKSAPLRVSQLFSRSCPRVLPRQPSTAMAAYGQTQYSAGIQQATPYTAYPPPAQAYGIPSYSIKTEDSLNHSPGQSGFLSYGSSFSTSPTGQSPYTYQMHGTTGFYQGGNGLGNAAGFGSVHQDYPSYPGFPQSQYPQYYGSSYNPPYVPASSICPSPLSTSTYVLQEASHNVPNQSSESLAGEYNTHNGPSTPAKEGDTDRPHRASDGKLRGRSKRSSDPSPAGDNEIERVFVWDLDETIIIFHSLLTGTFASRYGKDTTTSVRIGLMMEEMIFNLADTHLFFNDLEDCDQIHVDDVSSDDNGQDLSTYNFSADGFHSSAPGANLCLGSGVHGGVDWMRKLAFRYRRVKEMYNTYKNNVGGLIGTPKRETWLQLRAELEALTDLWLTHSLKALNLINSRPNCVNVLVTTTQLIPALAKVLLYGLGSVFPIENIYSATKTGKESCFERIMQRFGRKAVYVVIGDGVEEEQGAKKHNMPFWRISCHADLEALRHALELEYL
Target sequence (Q15475 whole entry, looked up): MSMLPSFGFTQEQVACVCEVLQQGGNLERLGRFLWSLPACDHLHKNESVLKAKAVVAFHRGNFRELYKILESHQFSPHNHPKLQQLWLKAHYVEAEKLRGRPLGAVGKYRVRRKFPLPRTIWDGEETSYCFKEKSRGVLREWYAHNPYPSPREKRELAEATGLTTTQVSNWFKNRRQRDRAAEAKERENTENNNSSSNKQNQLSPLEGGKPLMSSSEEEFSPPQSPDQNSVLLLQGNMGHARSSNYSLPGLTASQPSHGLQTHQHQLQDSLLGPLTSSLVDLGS
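Six1/Eya2 binding was read as AlphaScreen signal after compounds were pinned into GST-Six1 plus His-tagged Eya2 (5X stock 250/500 nM) in pH 8.0 Tris/NaCl/TCEP buffer, beads added, then incubated 1 h, 37 C, dark.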
CtBP-E1A blk = blocks the CtBP interaction with E1A; AlphaScreen GST-E1A/His-CtBP binding, 1536-well; hits give low values; control for the full effect not named in the record; activity change, % (test concentration not listed); 340,000 tested, 0.49% active; AID 651724; in the data active means activity change below about -65%; inconclusive means about -30% to -65%; inactive means above about -30%; further: on the % scale 0 is the no-effect control and ±100 the full control effect; compound concentration not given in the record
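AlphaScreen with 125 nM GST-E1A and 125 nM His-CtBP (5X stocks) in Tris pH 8.0, 300 mM NaCl, BSA, Tween 20, TCEP. Compounds preincubated 2 h at 37 deg C, then glutathione donor/nickel acceptor beads added for 1 h at 37 deg C in dark.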
D2 agonist = human D2 receptor agonism in beta-arrestin assay; P14416; DiscoveRx PathHunter D2 beta-arrestin, luminescence, 90 min; 100% = 57 uM dopamine signal; activation, % (concentration not given with the values); 360,000 tested, 0.084% active; in the data active = activation above about 40%; inconclusive = about 15% to 40%; inactive = below about 15%; further: compound concentration not given in the record; the text of the record calls up to 30% inactive
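DiscoveRx PathHunter D2 beta-arrestin cells (2,100/well) attached overnight, then compound-stimulated 90 min at 37 C in HBSS/10 mM HEPES/0.1% Tween-20 buffer; beta-galactosidase complementation read by luminescence after 1 h at ambient temperature. Dopamine 57 uM final (EC100) as control.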
PINK1 modulator = changes PINK1 expression; PINK1 immunofluorescence, high-content cytometry, 24 h; Potency, µM (top dose mostly 76.6 µM), inactives show at the highest dose activation (PINK1 increase), usual class: activators; 410,000 tested, 0.2% active; AID 624263; active = well fitted activation curve with a large enough effect; inconclusive = small, poorly fitted or top-dose-only effect; inactive = flat fitted curve, though single readings scatter; cell line not stated here;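 further: potency means the concentration at half of the fitted maximal effect; % of control where 0% means no effect; nearly all actives have a fitted effect of over 65% in size; a mitochondrial uncoupler was the plate control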
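Fluorescence from anti-PINK1 antibody, together with nuclear and cell stains, was scanned on a laser-scanning cytometer. Before staining, stable-line cells were incubated 24 hours with compounds at 5 concentrations; primary antibody 12 h at 10 degrees C.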
TRPML1 ag = activates the human TRPML1 channel | Q9GZU1 | TRPML1-expressing cells, Ca2+ dye fluorescence, FDSS; host cell line not named in the record; reference of the full effect not given here | activation, % (test concentration not listed) | 410,000 tested, 0.12% active; in the data active = activation above about 50%; inconclusive = about 30% to 50%; inactive = below about 30%; further: 0% is about no effect; the text of the record puts the active cut at 80%
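Kinetic FDSS Ca2+ read in Tet-induced TRPML1-DL cells (ABD Ca8 dye plus quencher, 45-90 min RT loading): baseline, then compound, then 110 s agonist window; EC80 agonist 54-4 at 4uM final added afterwards for a 110 s antagonist window.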
Starred values were filed as active, the others as inactive; u = inconclusive; x = not tested or not shown; [ ] = another dose, or the depositor's remark. This is a subset. The share of hits here may be higher or lower than overall.

entry | SMILES | D2 PAM | Six1-Eya2 blk | CtBP-E1A blk | D2 agonist | PINK1 modulator | TRPML1 ag
1 | C1CC2NCCC3NCCC(N1)N32 (stereo unspecified) | -15 | 4 | x | 2.0 | 0.3% | -0.1
2 | O=C1CSC2(CN3CCC2CC3)N1 (stereo unspecified) | 25 | 2 | 13 | -0.3 | -1.5% | 0.0
3 | O/N=C/c1c[nH]c2ccccc12 | 4 | 8 | 6 | 2.5 | -3.3% | 0.3
4 | Cn1c(O)c(C=NC2CCN(Cc3ccccc3)CC2)c(=O)[nH]c1=O | -7 | 9 | 4 | -3.9 | -0.5% | -0.3
5 | COC(=O)Nc1nc2ccccc2[nH]1 | -9 | 1 | 5 | 0.5 | 6.9% | 0.2
6 | COc1cccc(C2CCN(C)C2)c1 (stereo unspecified) | -15 | 1 | -3 | -3.2 | -0.5% | -0.2
7 | COc1cc2c(cc1OC)C13CCN4CC5CCOC6CC(=O)N2C1C6C5CC43 (stereo unspecified) | 0 | 5 | 4 | 4.3 | 3.7% | 1.3
8 | CC(Cc1ccccc1)[n+]1cc(/N=C(\N)[O-])on1 (stereo unspecified) | 2 | 7 | 2 | 4.0 | 1.6% | -0.6
9 | COC(=O)C1=C(c2ccc(F)cc2OCc2ccccc2)C[C@@H]2CC[C@H]1N2C(=O)NC(C)C | -14 | -8 | 1 | -1.7 | 0.8% | 0.3
10 | c1ccc2c(CCNC3CCCCC3)c[nH]c2c1 | -17 | -7 | -3 | -0.7 | u | 0.4

Single records, as listed above. Order of values: D2 PAM | Six1-Eya2 blk | CtBP-E1A blk | D2 agonist | PINK1 modulator | TRPML1 ag
Shown for Cn1c(O)c(C=NC2CCN(Cc3ccccc3)CC2)c(=O)[nH]c1=O : -7 | 9 | 4 | -3.9 | -0.5% | -0.3
Shown for COC(=O)Nc1nc2ccccc2[nH]1 : -9 | 1 | 5 | 0.5 | 6.9% | 0.2
Shown for O/N=C/c1c[nH]c2ccccc12 : 4 | 8 | 6 | 2.5 | -3.3% | 0.3
Shown for COC(=O)C1=C(c2ccc(F)cc2OCc2ccccc2)C[C@@H]2CC[C@H]1N2C(=O)NC(C)C : -14 | -8 | 1 | -1.7 | 0.8% | 0.3

(more compounds)
entry | SMILES | D2 PAM | Six1-Eya2 blk | CtBP-E1A blk | D2 agonist | PINK1 modulator | TRPML1 ag
11 | O=c1c2cc(Br)ccc2[nH]c(=S)n1-c1ccccc1 | 0 | 8 | 6 | -3.5 | -0.4% | -0.2
12 | Nc1ccc2cc(Br)ccc2c1 | 1 | -7 | 7 | 1.7 | 8.5% | 0.8
13 | CN(CCc1ccccc1)Cc1ccccc1[N+](=O)[O-] | 13 | -6 | -2 | 0.8 | -0.2% | -2.1
14 | CCCCN(Cc1ccccc1)C1CCN(CCc2ccccc2)CC1 | -11 | -14 | -16 | -4.9 | u | -0.4
15 | CCC(C)n1c(C)cc(C(N)=O)c1C (stereo unspecified) | -5 | 0 | -15 | 0.2 | -0.7% | -0.3
16 | COc1ccc(CCn2c(O)c(C=Nc3ccccc3F)c(=O)[nH]c2=O)cc1OC | 4 | 3 | 7 | 2.5 | 0.5% | -0.5
17 | O=c1[nH]c(=S)[nH]c(O)c1N=Nc1ccc(S(=O)(=O)N2CCc3ccccc32)cc1 | -21 | -20 | -5 | -9.5 | -0.3% | 1.6
18 | c1ccc(CNC2CN3CCC2CC3)cc1 (stereo unspecified) | -4 | 4 | 11 | -0.7 | -0.1% | 0.1
19 | COc1ccc(N2C(=O)CC(N3CC=C(c4ccccc4)CC3)C2=O)cc1 (stereo unspecified) | -5 | -7 | 0 | -1.2 | 0.4% | 0.4
20 | O=C1c2cccc3cccc(c23)C(=O)N1/N=C/c1c(O)n(-c2ccccc2)c(=O)[nH]c1=O | -2 | -11 | 7 | -1.6 | -0.5% | 1.3

Part of the list above with just TRPML1 ag, D2 agonist and D2 PAM.
cpd	canonical_smiles	TRPML1 ag	D2 agonist	D2 PAM
18	c1ccc(CNC2CN3CCC2CC3)cc1 (stereo unspecified)	0.1	-0.7	-4
19	COc1ccc(N2C(=O)CC(N3CC=C(c4ccccc4)CC3)C2=O)cc1 (stereo unspecified)	0.4	-1.2	-5
20	O=C1c2cccc3cccc(c23)C(=O)N1/N=C/c1c(O)n(-c2ccccc2)c(=O)[nH]c1=O	1.3	-1.6	-2

Continuation:
entry | SMILES | D2 PAM | Six1-Eya2 blk | CtBP-E1A blk | D2 agonist | PINK1 modulator | TRPML1 ag
21 | Nc1ncnc2c1ncn2[C@@H]1O[C@H](COP(=O)(O)CP(=O)(O)O)[C@@H](O)[C@H]1O | -2 | 0 | 10 | -0.3 | 1.2% | -0.4
22 | O=c1[nH]c(O)c(N=Nc2ccc(S(=O)(=O)N3CCOCC3)cc2)c(=O)[nH]1 | 0 | -1 | 3 | 2.8 | 5.1% | -0.3
23 | COc1ccc(S(=O)(=O)Cc2ccc(C(=O)N3CCC4(CC3)OCCO4)o2)cc1 | 19 | -11 | -7 | -3.4 | -1.5% | -0.2
24 | Fc1ccc(CCNCc2ccc(Cl)c(Cl)c2)cc1 | -19 | 26 | 7 | -0.7 | -0.3%[38.3 µM] | 2.6
25 | O=C(CN1CC(c2ccccc2)CC1=O)Nc1cccc(F)c1 (stereo unspecified) | -8 | 10 | -2 | -0.8 | 1.3% | 0.2
26 | CC1CCCC(NC(=O)COC(=O)Cc2ccccc2)C1C (stereo unspecified) | -11 | -2 | 5 | -3.2 | -0.9% | -0.5
27 | CCC(C#N)(CC)P(=S)(c1ccccc1)c1ccccc1 | -3 | 1 | x | -5.2 | 4.1% | 4.9
28 | CCCCCn1c(=O)c(C(=O)Nc2cccc(C)c2)c(O)c2ccccc21 | -5 | -6 | x | -4.5 | 1.3% | x
29 | Cn1cc(C(=O)OCC(=O)N2CCCCC2)c2ccccc21 | -4 | -1 | 3 | -4.6 | -0.9% | -0.3
30 | Cc1ccc(S(=O)(=O)Oc2ccccc2C=C2C(=O)NC(=O)NC2=O)cc1 | -23 | -23 | 18 | -3.0 | 7.6% | -0.9
31 | O=c1[nH]c(=O)n(Cc2ccccc2)c(O)c1C=Nc1ccc(CN2CCOCC2)cc1 | -1 | 9 | 1 | -4.0 | -1.0% | 0.0
32 | COc1ccc(C(CC(=O)c2ccc3c(c2)OCO3)c2c(O)c3ccccc3oc2=O)cc1OC (stereo unspecified) | -11 | u | -5 | -1.1 | 1.3% | -0.6
33 | Cc1cc(N2C(=O)C3CCCN3C2c2sccc2C)no1 (stereo unspecified) | -14 | 0 | 5 | -1.8 | 0.5% | -0.6
34 | CC(C)[N+](C)(CCC(C(N)=O)(c1ccccc1)c1ccccc1)C(C)C | 1 | 2 | 2 | -2.5 | 0.7% | -0.7
35 | CNC(=O)Oc1ccccc1C1CCCCC1 | -1 | -6 | -8 | -3.6 | 0.8% | 2.3
36 | O=C1NC(=O)C(Cc2ccccc2)(Cc2ccccc2)C(=O)N1 | -11 | -11 | 12 | 0.1 | -1.5% | 0.0
37 | Cc1cccc(CN2CCCC(C(=O)c3cccc(OC(C)C)c3)C2)n1 (stereo unspecified) | -17 | -10 | x | -1.6 | 3.8% | 0.4
38 | CCC(=O)O[C@H]1CC[C@H]2[C@@H]3CCC4=CC(=O)CC[C@]4(C)[C@H]3CC[C@]12C | -9 | 1 | 1 | 3.6 | 1.7% | -0.6
39 | CC(=NCC1CCCO1)c1c(O)n(Cc2ccccc2)c(=O)[nH]c1=O (stereo unspecified) | -5 | 1 | 6 | 0.4 | 1.1% | -0.8
40 | CCC(=O)c1cn(Cc2ccccc2)c2ccccc12 | -6 | 13 | 33 | -3.6 | 7.1% | 0.2
41 | O=C(CCCc1ccccc1)NCCc1cnc[nH]1 | -9 | -5 | 3 | -5.8 | 0.1% | x
42 | Cc1ccc(C2N3CCCN23)cc1 (stereo unspecified) | 0 | 3 | 0 | 4.0 | 1.1% | 2.0
43 | CCn1nc(/C=C/c2ccccc2)nc2c(=O)n(C)c(=O)nc1-2 | 16 | -28 | 13 | x | -1.6% | -0.4
44 | CCCCCCCCn1sccc1=O | -15 | 23 | 1 | -6.9 | -0.2% | 2.9
45 | COc1ccc(CN2CCCC(C(=O)c3ccc(Cl)cc3)C2)c(OC)c1 (stereo unspecified) | -18 | 1 | -3 | -0.1 | u | -0.4
46 | CC1(C)N=C(c2ccccc2)[C@@H]2C(c3ccc([N+](=O)[O-])cc3)N21 (stereo partly specified) | 6 | -1 | u | 1.2 | 1.1% | -0.8
47 | COc1ccc(/C=C2\C(=N\O)C3CCN2CC3)cc1 | 6 | 10 | 2 | -1.0 | -1.1% | -0.5
48 | COC1CC2C=C(C)C=CC=CC(=O)NC(c3ccccc3)CC=CCCC(O)CC(=O)C2=C1O (stereo unspecified) | -17 | -18 | 3 | 1.8 | -0.5% | -0.1
49 | Cc1ccsc1C(=O)C1CCCN(Cc2cnc(N3CCOCC3)s2)C1 (stereo unspecified) | -19 | -4 | -3 | -2.8 | 0.6% | 0.4
50 | CCCNS(=O)(=O)c1ccc(OCC(=O)N2CCN(Cc3ccc4c(c3)OCO4)CC2)cc1 | 6 | 2 | -2 | -0.4 | -4.3% | 0.0

Five entries already listed, sorted by molar mass, lowest first.
entry | SMILES | D2 PAM | Six1-Eya2 blk | CtBP-E1A blk | D2 agonist | PINK1 modulator | TRPML1 ag
24 | Fc1ccc(CCNCc2ccc(Cl)c(Cl)c2)cc1 | -19 | 26 | 7 | -0.7 | -0.3%[38.3 µM] | 2.6
4 | Cn1c(O)c(C=NC2CCN(Cc3ccccc3)CC2)c(=O)[nH]c1=O | -7 | 9 | 4 | -3.9 | -0.5% | -0.3
37 | Cc1cccc(CN2CCCC(C(=O)c3cccc(OC(C)C)c3)C2)n1 (stereo unspecified) | -17 | -10 | x | -1.6 | 3.8% | 0.4
7 | COc1cc2c(cc1OC)C13CCN4CC5CCOC6CC(=O)N2C1C6C5CC43 (stereo unspecified) | 0 | 5 | 4 | 4.3 | 3.7% | 1.3
9 | COC(=O)C1=C(c2ccc(F)cc2OCc2ccccc2)C[C@@H]2CC[C@H]1N2C(=O)NC(C)C | -14 | -8 | 1 | -1.7 | 0.8% | 0.3

Continuation:
entry | SMILES | D2 PAM | Six1-Eya2 blk | CtBP-E1A blk | D2 agonist | PINK1 modulator | TRPML1 ag
51 | O=C(c1cc2ccccc2oc1=O)N1CCC2(CC1)OCCO2 | -12 | 13 | 5 | -2.2 | 1.0% | -0.4
52 | Cc1ccccc1NC(=O)CCl | -6 | 7 | 0 | -3.7 | 14% | -0.6
53 | O=c1[nH]c(=O)n(Cc2ccco2)c(O)c1C=NCCCn1ccnc1 | -2 | 1 | -2 | -0.8 | -2.4% | 0.8
54 | COc1cccc(N2C(=O)NC(=O)/C(=C/c3ccc([N+](=O)[O-])s3)C2=O)c1 | 18 | u | -22 | 1.1 | 0.8% | 2.4
55 | COc1ccc(N2C(=O)NC(=O)/C(=C\c3cn(C)c4ccccc34)C2=O)cc1 | -15 | -13 | x | -0.3 | 29% | 0.1
56 | COC(=O)c1c(C)[nH]c(C(=O)C(C)[N+]23CCN(CC2)CC3)c1C (stereo unspecified) | -7 | 9 | -1 | -3.6 | 1.4% | 0.3

From PubChem
